Bioassay records deposited in PubChem BioAssay by Broad Institute.
Beta apoptosis – blocks beta cell apoptosis; 0.8% of 300,000 active; protection from apoptosis, % (test concentration not listed); INS-1E cytokine-induced death, ATP luminescence, 48 h; percent of positive-control rescue, neutral wells zero;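 active = all replicates at 75% or more, or half of them and the mean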;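 also: 0% = cytokine-treated negative control wells and 100% = positive control rescue; higher means more ATP so stronger rescue from cytokine killing; wells of about 40 µL received 100 nL stock; the first replicate is given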
T cruzi inh – blocks replication of Trypanosoma cruzi; T. cruzi beta-gal in NIH3T3, luminescence, 90 h; inhibition, % (concentration not given with the values); 1.4% of 300,000 active; AID 1885;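 active = mean inhibition across valid replicates above about 55%, limit read from the data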;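 also: signal also drops with host cell toxicity which is not excluded here; 0% = plate median of DMSO wells and 100% = zero luminescence signal; higher percent means less beta-gal luminescence so fewer parasites; stock transfer was 50 nL into about 50 µL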
A1 inh – inhibitors of the anti-apoptotic protein A1, read as caspase activation; caspase activation, % (concentration not given with the values); MEF A1-2A-BIM cells, Caspase-Glo 3/7 luminescence, 3 h; percent of clofoctol response, vehicle zero; 0.066% of 330,000 active;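 active = over half of replicate activation scores above 10%, or exactly half above 10 with the replicate mean above 10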;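 also: wells of about 30 µL received 50 nL stock; many hits fall short of the cut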
Numbers without * were called inactive. Not all compounds are listed; the hit share may differ from the screen's.

Order of results – Beta apoptosis	T cruzi inh	A1 inh
> Cc1cc(Cl)c(S(=O)(=O)N/N=C/c2ccc3c(c2)OCO3)c(Cl)c1
    0	-8	-0.3
> Cc1ccc(/C=N/NS(=O)(=O)c2ccccc2)o1
    -15	3	-0.3
> Cc1ccc(OCC(=O)NNC(=O)CCC(=O)Nc2ccc(C)cc2C)cc1
    -2	-24	0.7
> Cc1cccc(Nc2nc(N)nc(CC(=O)CSc3ccc(Cl)cc3)n2)c1
    5	-22	-0.4
> CCCn1c(=N)c(C#N)cc2c(=O)n3ccccc3nc21
    -3	0	0.8
> COC(=O)c1ccc(/C(O)=C(\C#N)c2nc3ccccc3s2)cc1
    9	-6	-2.4
> Cc1cc(-c2n[nH]c(=S)n2/N=C/C=C/c2ccccc2)n[nH]1
    -10	-16	-0.4
> C=CCn1c(=O)/c(=C2/SC(C)=C(C)N2CC)s/c1=C1/C(=O)N(CC)C(=S)N1c1ccccc1
    0	-6	-0.2
> Brc1ccc(Nc2nc3ccccc3n3nnnc23)cc1
    18	-4	-1.2
> COc1ccc(CCNc2cc(N3CCN(C(=O)c4ccc(C)cc4)CC3)ccc2[N+](=O)[O-])cc1OC
    90*	-4	0.0
> COc1ccc(/C=N/NC(=O)CN(Cc2ccccc2)S(=O)(=O)c2ccc3c(c2)OCCO3)cc1
    -6	-4	-0.2
> O=C(N/N=C/c1cn(-c2ccccc2)nc1-c1cccs1)c1ccncc1
    -1	-10	-0.2
> O=C(Oc1ccc(OC(=O)c2ccco2)c(S(=O)(=O)c2ccc(Br)cc2)c1)c1ccco1
    0	1	0.5
> CCn1c(SCc2nc3ccccc3s2)nnc1-c1ccccc1
    -4	6	0.1
> Clc1cccc(-c2ccc(/C=N/n3cnnc3)o2)c1
    0	38	-0.2
> CCn1nc(C)c(/C=N/NC(=O)c2ccc3c(c2)c(C)c(C)n3Cc2ccccc2)c1C
    -1	28	-1.2
> Cc1ccccc1C(=O)N1CCc2cc(-c3nc(NC(=O)Cc4ccc5c(c4)OCO5)sc3C)ccc21
    5	47	0.2
> COC(=O)CN(c1ccccc1C)S(C)(=O)=O
    -8	-33	1.0
> O=C1N(O)C2(C=CCCC2)/C(=N\O)C12CCCCC2 (centres undefined)
    5	-2	1.7
> CCOC(=O)c1c(-c2ccccc2)csc1/N=C/C1C(=O)CCCC1=O
    -7	13	0.6
> O=P(O)(CN1CCCCCC1)C1Cc2ccccc2C1
    3	-15	0.4
> COc1ccc(/C=N/NS(=O)(=O)c2ccccc2)cc1OS(=O)(=O)c1ccc(C)cc1
    -4	-1	0.3
> CC(=O)c1ccc(N2Cc3ccccc3/C2=N\C(=O)Nc2ccccc2)cc1
    -1	-5	0.0
> COc1cccc(OCCn2cc(/C=N/NC(=O)c3ccncc3)c3ccccc32)c1
    -1	23	-0.2
> Cc1ccc(-n2c(C)cc(/C=N/NC(=O)CC3(C)OCCO3)c2C)c(C)c1
    -8	-13	-0.7
> COc1cc2c(cc1NC(=O)c1cccnc1)oc1ccccc12
    -9	-13	0.9
> Cc1ccc(S(=O)(=O)NCC(=O)N/N=C/c2ccc(Cl)cc2)cc1
    -3	-4	0.3
> C/C(=N\OCC(=O)N/N=C/c1ccc(C)cc1O)c1cccs1
    -6	7	-1.3
> COc1cc(/C=N/N(C)c2ccccc2)cc(Cl)c1O
    -1	-15	-1.1
> N=C1CCC(=N)c2c1c(O)c1ccccc1c2O
    12	0	1.6
> O=C(Nc1ccccc1)N1CC=C(c2ccccc2)CC1
    2	36	-0.8
> O=C(Cn1ccc(C(F)(F)F)n1)N/N=C/c1ccc2c(c1)OCO2
    -11	3	-0.6
> COc1ccc(N2C(=O)CC(S/C(N)=N/N=C(\C)c3cccs3)C2=O)cc1 (centres undefined)
    -6	-6	0.7
> Cc1ccc(CN2CCNC(=O)C2CC(=O)NC2CCCCCC2)o1 (centres undefined)
    -2	10	-0.1
> COc1cc(/C=N/NC(=O)c2sc(N)c(C#N)c2C)ccc1O
    -4	8	-1.1
> Cc1ccc(-n2[nH]c(C)c(/C=N/NC(=O)c3cccc([N+](=O)[O-])c3)c2=O)cc1C
    106*	-54	-4.5
> CC(/C=N/n1c(-c2cc(C)[nH]n2)n[nH]c1=S)=C\c1ccccc1
    -4	3	-1.6
> O=C1Nc2ccc(Cl)cc2[C@@](C#CC2CC2)(C(F)(F)F)O1
    10	5	0.3
> COc1cc(/C=N/NC(=O)C(=O)NCc2cccnc2)ccc1O
    0	-7	-0.3
> CCOC(=O)C1=C(C)N=c2s/c(=C/c3ccco3)c(=O)n2C1c1cccc(OC)c1 (centres undefined)
    5	9	0.4
> O=C(N/N=C/c1cc([N+](=O)[O-])ccc1O)/C(=C\c1cccs1)NC(=O)c1ccccc1
    23	-17	0.1
> CC/C(=N/O)c1cnnc(SC)n1
    -2	-3	-0.1
> O=C(N/N=C/c1cc2ccccc2nc1Cl)/C(=C/c1cccs1)NC(=O)c1ccccc1
    7	3	0.0
> O=C(N/N=C/c1sc2ccccc2c1O)c1cccc2ccccc12
    97*	27	0.0
> Cc1cnn(-c2cc(N/N=C/c3ccccc3F)ncn2)c1
    -3	-7	0.5
> Cc1cc(/C=N/NC(=O)C(O)(c2ccccc2)c2ccccc2)c(C)n1-c1ccccc1
    -6	9	-0.6
> Cc1cccc(NC(=O)Cn2c(=O)n(Cc3ccccc3)c(=O)c3c(C)c(C)sc32)c1
    15	-11	1.4
> CCOC(=O)c1c(/N=C/c2cc(C)ccc2O)sc2c1CCN(C)C2
    -1	5	0.0
> COc1cccc(/C=N/NC(=O)c2cccc([N+](=O)[O-])c2)c1OS(=O)(=O)c1ccccc1
    2	6	-0.5
> Cc1sc2ncnc(Sc3nnc4sc5ccccc5n34)c2c1C
    -9	-17	0.1
> COc1cccc(/C=N\NC(=O)C2=NNC(=O)C2C)c1O (centres undefined)
    5	-8	-5.3
> Cn1c(/C=N/NC(=O)c2ccccc2Br)nc2ccccc21
    -1	16	1.7
> COc1cc(C)ccc1OCCCOc1ccccc1Br
    -4	5	0.5
> CCc1ccc(NC(=O)c2c(Cl)nc(C)c(Cl)c2C)cc1
    1	23	-1.3
> Cc1c(O)ccc(/C(Cc2ccc3ccccc3n2)=N\O)c1O
    18	-15	-0.6
> CC(C)Oc1ccc(/C=N/NC(=O)C(CSCc2ccccc2)NC(=O)c2ccc([N+](=O)[O-])cc2)cc1 (centres undefined)
    -15	20	-0.7
> COC(=O)/C(=C(/F)SCC(C)=O)C(F)(F)F
    -1	-8	-0.3
> Cc1ccc(/C(=N\O)c2oc3c(C)c4oc(=O)cc(C)c4cc3c2C)cc1
    12	59*	0.4
> CCOc1ccc(/C=N/NC(=S)Nc2c(C)cccc2C)cc1
    4	-31	0.1
> O=C(OCn1ncc(Cl)c(Cl)c1=O)c1ccc(F)cc1
    102*	63*	0.4

The list continues.
Order of results – Beta apoptosis	T cruzi inh	A1 inh
> O=C(CSc1nnc2c(Cl)cc(C(F)(F)F)cn12)N(Cc1ccccc1)Cc1ccccc1
    1	7	0.1
> COc1ccc(C(=O)N/N=C/C(Br)=C/c2ccccc2)cc1
    10	-1	-0.3
> CCCCCCCCC/C(=N\O)c1ccccn1
    41	63*	0.1
> Cc1ccc(S(=O)(=O)Oc2ccc(C)cc2/C=N/N=C2\NC(=O)C(C)S2)cc1 (centres undefined)
    5	1	-0.8
> CCCCOC(=O)c1ccc(NC(=O)C(=O)NCc2ccncc2)cc1
    5	-19	0.1
> Cc1ccc(CNC(=O)/C=C/c2c(Cl)cccc2Cl)cc1
    -5	7	0.5
> CC(C)CCNC(=O)[C@H](CC(C)C)NC(=O)[C@H]1O[C@@H]1C(=O)O
    -6	21	0.7
> CC(C)(CSc1nncn1/N=C/c1ccco1)NS(=O)(=O)c1ccc(Cl)cc1
    1	6	-0.2
> O=C(COC(=O)c1cn(-c2ccccc2)nc1-c1ccccc1)c1ccc([N+](=O)[O-])cc1
    4	20	0.3
> CCOc1ccccc1NC(=O)C(=O)/C=C(\O)c1cc(OC)ccc1OC
    -3	-5	0.4
> N#C/C(=N\Nc1cccc(Cl)c1)C(=O)c1ccccc1
    47	-8	-2.1
> C/C(=N\Nc1ccc(C(F)(F)F)cc1[N+](=O)[O-])C1CC1
    1	4	1.1
> COc1ccc(/C=N/NC(=O)c2cccc([N+](=O)[O-])c2)cc1OS(=O)(=O)c1ccccc1
    -4	12	-0.5
> CN1C(=O)N(C)C2(c3ccccc3)Nn3c(s/c(=C/c4ccccc4F)c3=O)=NC12c1ccccc1 (centres undefined)
    5	-10	-0.3
> Cc1ccc(N/N=C/c2cccnc2)cc1
    -3	7	0.4
> CC(C)(C)c1ccc(/C=N/NC(=O)Cc2c[nH]c3ccccc23)cc1
    -2	34	-0.5
> CCCCOc1ccc(/C=N/NC(=S)Nc2cccc(C)c2C)cc1
    -1	41	0.6
> Nc1n[nH]c(N)c1N=Nc1cccc(F)c1
    -9	13	-1.0
> C/C(=N\O)C(=O)NCc1ccccn1
    -6	10	0.6
> Cc1ccc(-c2csc3ncn(/N=C/N(C)C)c(=O)c23)o1
    -6	-9	-0.4
> O=[N+]([O-])c1cc2c(cc1/C=N\NS(=O)(=O)c1ccccc1)OCO2
    -13	-9	0.0
> C/C(=N/NC(=O)c1ccoc1C)C12CC3CC(CC(C3)C1)C2
    -5	-3	0.2
> COc1ccc(/C=N/NC(=O)c2ccc(Cn3cc([N+](=O)[O-])cn3)o2)c(OC)c1C
    0	5	-0.4
> C/C(=N\Nc1nnc(C)c(=O)[nH]1)C(=O)O
    -2	-3	0.5
> Nc1nonc1-n1nnc(C(=O)N/N=C/c2ccc(Br)cc2)c1CSC1=NCCS1
    -4	1	0.3
> O=C(NNC(=O)c1cc2cc3ccccc3nc2s1)c1ccc(F)cc1
    0	10	-1.4
> CCOC(=O)c1cc(C)sc1/N=C/C1=C(O)CCCC1=O
    -8	-13	1.1
> CC(=C/c1ccccc1)/C=N/NC(=O)c1cnccn1
    4	-14	0.1
> COc1cc(OC)cc(C(=O)N/N=C/c2ccc(OC)c(COc3ccc(F)cc3)c2)c1
    10	-55	0.6
> CCc1ccccc1NC(=S)/N=C(\N)Nc1nc(C)c2cc(C)ccc2n1
    3	36	-0.4

6 compounds from above, arranged by heavy-atom count, lowest first.
Order of results – Beta apoptosis	T cruzi inh	A1 inh
> Nc1n[nH]c(N)c1N=Nc1cccc(F)c1
    -9	13	-1.0
> N#C/C(=N\Nc1cccc(Cl)c1)C(=O)c1ccccc1
    47	-8	-2.1
> CCOC(=O)c1cc(C)sc1/N=C/C1=C(O)CCCC1=O
    -8	-13	1.1
> O=[N+]([O-])c1cc2c(cc1/C=N\NS(=O)(=O)c1ccccc1)OCO2
    -13	-9	0.0
> COc1ccc(/C=N/NC(=O)c2ccc(Cn3cc([N+](=O)[O-])cn3)o2)c(OC)c1C
    0	5	-0.4
> COc1cc(OC)cc(C(=O)N/N=C/c2ccc(OC)c(COc3ccc(F)cc3)c2)c1
    10	-55	0.6

Returning to the listing, repeating the 4 entries before the break.
Order of results – Beta apoptosis	T cruzi inh	A1 inh
> CCOC(=O)c1cc(C)sc1/N=C/C1=C(O)CCCC1=O
    -8	-13	1.1
> CC(=C/c1ccccc1)/C=N/NC(=O)c1cnccn1
    4	-14	0.1
> COc1cc(OC)cc(C(=O)N/N=C/c2ccc(OC)c(COc3ccc(F)cc3)c2)c1
    10	-55	0.6
> CCc1ccccc1NC(=S)/N=C(\N)Nc1nc(C)c2cc(C)ccc2n1
    3	36	-0.4
> Cc1[nH]c2ccccc2c1/C=N/NC(=O)Cc1cccs1
    4	8	0.2
> Cc1c(NC(=O)COC(=O)c2cc(-c3cccc4ccccc34)nc3ccccc23)c(=O)n(-c2ccccc2)n1C
    0	-21	0.0
> O/N=C(\c1ccc(Cl)cc1Cl)c1ncc(C(F)(F)F)cc1Cl
    -14	18	0.1
> O=S1(=O)c2ccccc2N=NN1Cc1cc(Cl)cc(Cl)c1
    -7	-6	-0.6
> C/C(=N\NC(=S)NCCc1ccccc1)c1ccc(C#N)cc1
    -2	-6	0.6
> CCOc1cc(C2C(C#N)=C(N)OC(C)=C2C(C)=O)c(Br)c(Br)c1OC(C)C (centres undefined)
    5	10	-0.1
> NS(=O)(=O)c1ccc(N=Cc2ccc(Br)s2)cc1
    -9	-12	0.7
> COc1ccc(/C=N/NC(=O)CSCC(=O)Nc2ccccc2)cc1OC
    -4	-10	0.2
> Cc1ccccc1NCC(=O)N/N=C/c1ccc([N+](=O)[O-])cc1
    2	-6	-0.5
> C/C(CCc1ccccc1)=N\NC(=O)CC(=O)NCCc1ccccc1
    -12	-5	0.4
> CCNC(=O)C/C(C)=N/NC(=O)C12CC3CC(CC(C3)C1)C2
    -7	1	0.3
> O=C(N/N=C/c1ccc(O)cc1)c1cccc(C(F)(F)F)c1
    -9	-18	0.7
> CCC1=[N+]([O-])C(C)(/C(C)=N\O)N(O)C1(C)C (centres undefined)
    -4	-13	1.8

Single entries from the entries so far:
O/N=C(\c1ccc(Cl)cc1Cl)c1ncc(C(F)(F)F)cc1Cl in Beta apoptosis → -14
CCC1=[N+]([O-])C(C)(/C(C)=N\O)N(O)C1(C)C (centres undefined) in Beta apoptosis → -4
